TRPML1 blocker – blocks the human TRPML1 channel. activity change, negative = inhibition, % (test concentration not listed). TRPML1-inducible cells, Ca2+ dye fluorescence, FDSS; stronger effect = lower value; inhibition of EC80 agonist-evoked calcium signal. hit rate 0.02% among 390,000; in the data active means activity change below about -50%; inconclusive means about -30% to -50%; inactive means above about -30%;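 further: stimulus is agonist 54-4 at its EC80 concentration; on the % scale 0 is the no-effect control and ±100 the full control effect; compound concentration not given in the record; the text of the record puts the active cut at -80%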
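Calcium fluorescence in TRPML1-DL cells induced overnight with Tet: a 110 s read after compound pin addition, then a 110 s antagonist read after challenge with 54-4 at 4 uM final (EC80).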
Six1-Eya2 inh – inhibitors of human Six1/Eya2 interaction. activity change, % (no concentration beside the values). hit rate 0.56% among 360,000. AlphaScreen GST-Six1/His-Eya2 binding, biochemical; stronger effect = lower value; control for the full effect not named in the record. AID 651725; in the data active = activity change below about -65%; inconclusive = about -30% to -65%; inactive = above about -30%; further: on the % scale 0 is the no-effect control and ±100 the full control effect; compound concentration not given in the record
Target sequence (O00167 whole entry, looked up): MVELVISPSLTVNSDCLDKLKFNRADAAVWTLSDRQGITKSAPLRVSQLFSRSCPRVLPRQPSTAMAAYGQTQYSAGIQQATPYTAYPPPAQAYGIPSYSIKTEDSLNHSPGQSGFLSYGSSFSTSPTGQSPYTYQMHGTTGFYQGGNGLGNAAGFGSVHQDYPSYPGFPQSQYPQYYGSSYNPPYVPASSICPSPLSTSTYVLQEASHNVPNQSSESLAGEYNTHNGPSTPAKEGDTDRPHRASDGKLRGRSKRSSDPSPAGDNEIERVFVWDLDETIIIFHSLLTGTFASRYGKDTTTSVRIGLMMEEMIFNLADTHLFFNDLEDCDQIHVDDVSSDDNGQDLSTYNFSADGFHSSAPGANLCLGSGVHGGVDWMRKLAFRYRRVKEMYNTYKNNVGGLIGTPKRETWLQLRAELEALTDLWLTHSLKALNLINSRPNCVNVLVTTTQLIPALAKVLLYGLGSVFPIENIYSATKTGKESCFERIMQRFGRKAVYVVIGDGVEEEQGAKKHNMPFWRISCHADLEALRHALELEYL
Target sequence (Q15475 whole entry, looked up): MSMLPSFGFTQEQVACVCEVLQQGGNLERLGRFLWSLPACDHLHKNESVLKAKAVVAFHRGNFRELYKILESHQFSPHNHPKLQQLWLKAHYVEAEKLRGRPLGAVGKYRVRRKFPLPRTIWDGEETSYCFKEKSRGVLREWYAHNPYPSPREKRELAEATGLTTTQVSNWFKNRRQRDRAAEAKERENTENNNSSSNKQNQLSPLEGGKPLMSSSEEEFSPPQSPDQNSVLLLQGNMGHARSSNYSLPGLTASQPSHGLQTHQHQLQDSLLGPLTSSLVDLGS
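Homogeneous AlphaScreen proximity assay pairing GST-Six1 with His-tagged Eya2 (added as 5X mix: 250 nM and 500 nM) in 50 mM Tris pH 8.0, 300 mM NaCl, 1 mM TCEP. Glutathione donor and nickel acceptor beads; 1 h, 37 °C, dark.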
TRPV1 PAM – potentiators of human vanilloid receptor 1 (TRPV1); Q8NER1; TRPV1-expressing cells, Fluo-8 calcium influx, capsaicin EC20 potentiation; host cell line not named in the record; control for the full effect not named in the record; potentiation, % at 8.33 µM; hit rate 0.02% among 320,000; AID 540277; active means potentiation above 80%; inconclusive means 30% to 80%; inactive means below 30%; further: 0% is about no effect
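Fluo-8 calcium influx in TRPV1-expressing cells, kinetic read (ex 480/em 520 nm). Compound added and read 3 min for agonist activity, followed by capsaicin at EC20 final and 2 min further read for enhancement.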
TRPML1 ag – human mucolipin-1 channel agonism; AID 624414; activation, % (concentration not given with the values); TRPML1-expressing cells, Ca2+ dye fluorescence, FDSS; host cell line not named in the record; reference of the full effect not given here; Q9GZU1; hit rate 0.12% among 410,000; in the data active = activation above about 50%; inconclusive = about 30% to 50%; inactive = below about 30%; further: 0% is about no effect; the text of the record puts the active cut at 80%
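Tetracycline-induced TRPML1-DL cells are seeded and incubated overnight before loading with a no-wash Ca2+ dye and quencher. Agonist activity is taken from the 110 s fluorescence read following compound pin-transfer on an FDSS, before EC80 54-4 challenge.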
CtBP-E1A inh – blocks the CtBP interaction with E1A; AlphaScreen GST-E1A/His-CtBP binding, 1536-well; stronger effect = lower value; control for the full effect not named in the record; activity change, % (test concentration not listed); hit rate 0.49% among 340,000; AID 651724; in the data active means activity change below about -65%; inconclusive means about -30% to -65%; inactive means above about -30%; further: on the % scale 0 is the no-effect control and ±100 the full control effect; compound concentration not given in the record
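In 5 uL wells, 23 nL compound meets equimolar GST-E1A and His-CtBP (5X stock 125 nM each) for 2 h, 37 °C. Beads (5X, 50 ug/mL) then 1 h, 37 °C, dark.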
D2 PAM – human D2 receptor positive allosteric modulation | hit rate 0.23% among 360,000 | P14416 | DiscoveRx D2 beta-arrestin cells, luminescence, 90 min; 100% = 57 uM dopamine signal | AID 624464 | potentiation, % (test concentration not listed); active = potentiation of 50% or more; inconclusive = 30% to 50%; inactive = 30% or less;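 further: compound concentration not given in the record; tested on top of an EC20 dose of dopamine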
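PathHunter beta-arrestin assay in DiscoveRx D2 cells. Compounds were added with an EC20 of dopamine (50 nM final) for 90 min at 37 deg C. Luminescence was read 1 h after detection reagent, with 57 uM dopamine as the EC100 control.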
* hit, by the source's call; ? = inconclusive; nt = no result given. Outcome played no part in choosing rows; overall some 0.95% were active at least once.

canonical_smiles | TRPML1 blocker | CtBP-E1A inh | TRPML1 ag | Six1-Eya2 inh | TRPV1 PAM | D2 PAM
O=C(COc1ccccc1C(=O)c1cnn(-c2ccccc2)c1)Nc1ccc2ccccc2c1 | 11 | -1 | -0.3 | -6 | 7 | -8
CC(=O)Nc1sc(C)c(C)c1C(=O)OCC(=O)N(Cc1ccccc1)C(C)C | -18 | 5 | 2.2 | 4 | -3 | -1
COc1ccc2nc(SCC(=O)Nc3c(C)cc(C)cc3C)[nH]c2c1 | -9 | -29 | -0.5 | -23 | 1 | 12
O=C(NNC(=S)NCc1ccco1)C(c1ccccc1)c1ccccc1 | -8 | -12 | 0.0 | -1 | 3 | -20
COc1cccc(S(=O)(=O)Nc2ccc(C(=O)N3CCOCC3)cc2)c1 | 8 | 9 | 0.8 | 6 | -1 | -1
CC(=O)Nc1cccc(NC(=O)c2ccccc2OCc2ccccc2)c1 | 2 | -2 | 0.3 | -2 | -8 | -2
Cc1onc(-c2c(Cl)cccc2Cl)c1C(=O)N/N=C(\N)COc1ccc(Cl)cc1 | 0 | -12 | 0.4 | -12 | -16 | 27
O=C(N/N=C/c1cccc(OCc2ccccc2)c1)c1ccc(Br)cc1 | 0 | 3 | -0.1 | 4 | -32 | -31
COc1cc(NC(=O)[C@@H]2CCCN(S(=O)(=O)c3cccc4cccnc34)C2)cc(OC)c1OC | -3 | 20 | 0.3 | 15 | -4 | 21
CCCCCCn1c(C)nc2c(c1=O)c1nc3ccccc3nc1n2/N=C/c1ccco1 | 14 | 0 | -0.7 | -1 | -21 | -6
CC1CCN(C(=O)COc2cccc3c2CCN(C)C3=O)CC1 | 3 | 0 | -0.5 | 16 | 2 | -3
CNC(=O)NC(=O)CSc1nc2sccc2c(=O)n1-c1ccccc1 | -5 | -25 | 0.7 | -7 | ? | 0
CCOc1ccccc1NC(=O)C1C2CCC3C(CCC21)C3(Cl)Cl (stereo not given) | -6 | nt | 1.5 | 8 | -4 | -9
Cc1cccc(NC(=O)C2CCN(c3nc(C)cc(C)n3)CC2)c1 | 5 | 1 | -0.4 | -1 | -20 | -4
Cc1cc(C)nc(NC(=O)c2cccc([N+](=O)[O-])c2C)n1 | 10 | -3 | -0.3 | -3 | -17 | -20
CC1CN(c2ccc(S(=O)(=O)N3CCOCC3)cn2)CC(C)O1 (stereo not given) | 12 | -2 | -0.1 | 10 | 1 | -4
CCOc1ccccc1NC(=O)NCc1ccccc1 | -14 | 4 | -0.1 | 3 | -2 | -11
Clc1ccc(Cl)c(-c2nn3c(Cn4cnc5ccccc54)nnc3s2)c1 | -8 | 11 | -0.6 | 3 | nt | -12
N#Cc1ccccc1OCCOCCNC1CCCC1 | 0 | -3 | 0.5 | 6 | 9 | -20
COc1cccc(C(=O)NNC2=CC(=O)CC(C)(C)C2)c1 | 2 | 6 | 0.7 | -1 | -11 | -13
COC(=O)[C@]1(Cc2ccccc2)N[C@H](CN(C)C(=O)C2CCCCC2)[C@@H]2C(=O)N(Cc3ccccc3)C(=O)[C@@H]21 | -1 | 1 | 1.4 | -6 | nt | -6
O=C(CCSc1nnc(-c2ccccc2)o1)N1CCOCC1 | -20 | -14 | 1.1 | 10 | -4 | -5
COc1ccccc1NC(=O)CN1C(=O)C2(OCCCO2)c2ccccc21 | -13 | -1 | 0.5 | 1 | 9 | 9
CCOc1ccc(NC(=O)N2CCC(n3nnc4cc(C)ccc43)CC2)cc1 | 2 | -5 | 0.2 | -6 | -6 | -9
CCOC(=O)N1CCN(C(=O)C2CCCN(S(C)(=O)=O)C2)CC1 (stereo not given) | -5 | 15 | 0.7 | 9 | -1 | 8
Cc1cc(NC(=O)CS(=O)(=O)c2ccc(F)cc2)no1 | 3 | -2 | 0.2 | 5 | 21 | -19
COc1cccc(C(=O)NC2CC3CCCC(C2)N3CC(=O)Nc2ccccc2C(F)(F)F)c1 (stereo not given) | 24 | -5 | 2.8 | -24 | -17 | -5
C[C@H](CO)N1C[C@H](C)[C@@H](CN(C)Cc2ccncc2)Oc2c(cccc2N(C)C)C1=O | 3 | 3 | -0.2 | 0 | nt | -2
CCOC(=O)N1CCN(c2c(NCc3ccc(F)cc3)c(=O)c2=O)CC1 | nt | 0 | nt | 2 | -2 | 6
Cc1ccc(C(=O)NC(C)c2ccc(F)cc2)cc1 (stereo not given) | 27 | 4 | 1.8 | 3 | -43 | -9
COc1ccc(OC)c(NC(=O)C2(C)CCN2Cc2cccc(OC)c2OC)c1 (stereo not given) | nt | -14 | -0.2 | -27 | nt | -1
O=C(Cn1c(Cc2ccccc2)nc2ccccc21)NCc1ccc2c(c1)OCO2 | -4 | 4 | -0.6 | 0 | 6 | -3
O=c1c2cnn(-c3ccccc3)c2ncn1Cc1cccc(Cl)c1 | 15 | 12 | -0.9 | 2 | -25 | -5
COc1ccc(COC(=O)c2ccc(S(=O)(=O)N3CCC(C)CC3)cc2)cc1 | 24 | 7 | 0.7 | -3 | 10 | -12
O=C(O)c1cccc(Cn2c(Cl)c(/C=N/NC(=O)c3ccccc3Cl)sc2=O)c1 | 18 | -3 | 1.4 | 0 | 5 | -16
O=C(c1c(F)cccc1F)N1CCCc2ccccc21 | 7 | 4 | -0.4 | -14 | 16 | -8
CC(=O)c1sc(NC(=O)CS(=O)(=O)c2ccccc2)nc1-c1ccccc1 | -4 | 0 | 1.4 | -1 | -3 | -8
CC(=O)Nc1cccc(-c2csc(C(O)c3ccc(F)c(F)c3)n2)c1 (stereo not given) | nt | 9 | 0.4 | 4 | nt | 0
O=C(CN(Cc1ccc(Cl)cc1)C(=O)c1csnn1)NCc1ccc(F)cc1 | -2 | 0 | -1.2 | -14 | -1 | -9
C/C(CC(=O)NC(C)(C)C)=N\NC(=O)c1ccccc1N | -11 | 11 | -0.5 | -1 | 1 | 11

Entries above that contain a thiophene ring, fused or not:
canonical_smiles | TRPML1 blocker | CtBP-E1A inh | TRPML1 ag | Six1-Eya2 inh | TRPV1 PAM | D2 PAM
CC(=O)Nc1sc(C)c(C)c1C(=O)OCC(=O)N(Cc1ccccc1)C(C)C | -18 | 5 | 2.2 | 4 | -3 | -1
CNC(=O)NC(=O)CSc1nc2sccc2c(=O)n1-c1ccccc1 | -5 | -25 | 0.7 | -7 | ? | 0

Remaining list, next part.
canonical_smiles | TRPML1 blocker | CtBP-E1A inh | TRPML1 ag | Six1-Eya2 inh | TRPV1 PAM | D2 PAM
CC(=O)OCC1=C(C(=O)OC(C)(C)C)N2C(=O)[C@@H](NC(=O)Cc3ccccc3)[C@H]2SC1 | -10 | -1 | -1.0 | -7 | nt | -2
CC(C)C(=O)NCCc1nc(-c2ccc(Cl)cc2)no1 | -10 | nt | -0.2 | 16 | nt | -4
O=C(O)c1nn(Cc2csc(-c3ccccc3)n2)c(=O)c2ccccc12 | 2 | 0 | 4.0 | 2 | 5 | -1
Cc1ccc(F)cc1C(=O)N1CCC1(C)C(=O)O (stereo not given) | 2 | 14 | 0.0 | 10 | nt | -5
O=C(O)c1cccc(S(=O)(=O)Nc2cccc3ccccc23)c1 | -5 | 4 | 0.4 | 3 | 3 | 2
CCn1c(CN2CCN(c3cccc(C)c3C)CC2)n[nH]c1=S | -6 | 0 | 1.0 | 7 | -2 | -9
CCc1ccc(C(C)NC(=O)c2ccc3c(c2)OCO3)cc1 (stereo not given) | 0 | 4 | -0.2 | 0 | -22 | -2
CC(=O)N1CCN(c2ccc(NC(=O)c3ccc([N+](=O)[O-])cc3Cl)cc2)CC1 | -3 | -9 | 0.2 | 3 | -10 | 1
CC(C)CN(C(=O)C(C)N1C(=O)c2ccccc2C1=O)c1c(N)n(Cc2ccccc2)c(=O)[nH]c1=O (stereo not given) | -3 | -1 | 0.3 | 2 | 3 | ?
CCOc1ccc(CCNC(=O)COc2cc(=O)n(C)c3ccccc23)cc1OCC | -14 | nt | -1.4 | 1 | 7 | 3
C1=C(C(c2nnnn2C2CCCCC2)N2CCCCC2)COc2ccccc21 (stereo not given) | 27 | 25 | 4.9 | 3 | -16 | -15
Cc1c(NC(=O)C(C)N2C(=O)C3C4C=CC(C4)C3C2=O)c(=O)n(-c2ccccc2)n1C (stereo not given) | -2 | 2 | -0.7 | 0 | -3 | -6
CCN1/C(=C(\O)c2ccccc2)C(=O)c2ccccc2S1(=O)=O | 28 | 1 | -0.2 | 11 | ? | -25
COc1ccccc1C(=O)Nc1ccnn1C1CCN(Cc2ccc3nonc3c2)CC1 | 6 | -4 | 0.2 | 1 | 19 | -33
CN=C(Nc1ccc(C(=O)OC)s1)c1ccc(Cl)cc1 | -3 | 21 | 1.5 | 0 | -14 | -5
CC1=C(C#N)CCC(=O)N1Cc1c(C)cc(C)cc1C | -14 | 6 | 0.8 | 8 | nt | 2
COC(=O)C1=C(C)N(CC(C)C)C(=O)/C1=C\c1cccs1 | 50 | 1 | 1.1 | 0 | -5 | -15
COc1ccc(CC(=O)O/N=C(\N)c2ccccn2)cc1 | 9 | 1 | -1.1 | 3 | -15 | -13
O=C1C2C3C=CC(O3)C2C(=O)N1CC(O)c1ccccc1 (stereo not given) | 2 | 5 | -1.1 | 1 | 1 | -8
CCN1/C(=C/C=C/c2oc3ccc(-c4ccccc4)cc3[n+]2CC)Oc2ccc(-c3ccccc3)cc21 | -16 | 19 | 80* | 12 | ? | -24
COc1ccccc1C1=CC(=O)CC(C)(C)C1=O | 2 | -1 | -0.3 | 1 | -8 | -4
COc1cc(C(NC(C)=O)NC(C)=O)ccc1OCc1ccccc1 | -9 | 2 | 3.5 | 9 | 6 | -5

Profiles as entered above. Screens in order: TRPML1 blocker | CtBP-E1A inh | TRPML1 ag | Six1-Eya2 inh | TRPV1 PAM | D2 PAM
`C1=C(C(c2nnnn2C2CCCCC2)N2CCCCC2)COc2ccccc21` (stereo not given) in the list: 27 | 25 | 4.9 | 3 | -16 | -15
`CCOc1ccc(CCNC(=O)COc2cc(=O)n(C)c3ccccc23)cc1OCC` in the list: -14 | nt | -1.4 | 1 | 7 | 3

Random excerpt: four records from the list, in no set order.
canonical_smiles | TRPML1 blocker | CtBP-E1A inh | TRPML1 ag | Six1-Eya2 inh | TRPV1 PAM | D2 PAM
C1=C(C(c2nnnn2C2CCCCC2)N2CCCCC2)COc2ccccc21 (stereo not given) | 27 | 25 | 4.9 | 3 | -16 | -15
O=C(O)c1nn(Cc2csc(-c3ccccc3)n2)c(=O)c2ccccc12 | 2 | 0 | 4.0 | 2 | 5 | -1
COc1ccccc1C1=CC(=O)CC(C)(C)C1=O | 2 | -1 | -0.3 | 1 | -8 | -4
CCN1/C(=C/C=C/c2oc3ccc(-c4ccccc4)cc3[n+]2CC)Oc2ccc(-c3ccccc3)cc21 | -16 | 19 | 80* | 12 | ? | -24

Screens deposited in PubChem BioAssay by National Center for Advancing Translational Sciences (NCATS).
